GIV Gai3 FP – inhibitors of GIV peptide binding to Galpha-i3, primary screen, biochemical, fluorescence polarization, FITC-GIV GBA peptide, rat Galphai3; Guanine nucleotide-binding protein G(i) subunit alpha-3 (Rattus norvegicus), P08753; 90 min; hits give low values; scaled: aluminum fluoride 0%, vehicle 100%; percent of control (FP), % (no concentration beside the values); 210,000 tested, 0.42% active;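 active = replicate mean at 85% of control or lower, very high polarization wells dropped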;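 also: wells of about 15 µL received 100 nL stock; the first replicate is given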
Target sequence (P08753 whole entry, looked up): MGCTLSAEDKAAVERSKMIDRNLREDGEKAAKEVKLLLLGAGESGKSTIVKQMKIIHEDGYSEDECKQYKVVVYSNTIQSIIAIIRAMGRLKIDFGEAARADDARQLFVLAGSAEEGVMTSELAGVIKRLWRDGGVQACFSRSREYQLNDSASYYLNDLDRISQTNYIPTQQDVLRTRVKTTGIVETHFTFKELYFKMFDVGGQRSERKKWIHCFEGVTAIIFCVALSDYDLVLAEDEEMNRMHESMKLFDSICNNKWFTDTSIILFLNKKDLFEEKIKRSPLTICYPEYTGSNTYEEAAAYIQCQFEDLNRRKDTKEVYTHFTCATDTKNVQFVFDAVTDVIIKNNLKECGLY
HCMV UL50-53 inh – inhibitors of HCMV UL50-UL53 interaction, biochemical, HTRF. HCMV UL50-UL53 nuclear egress complex (human cytomegalovirus). 190,000 tested, 0.15% active. inhibition, % (concentration not given with the values). normalized percent inhibition;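 active = both replicates at 50% or more, plus weaker picks with an unusually low signal ratio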;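 also: stock transfer was 100 nL into about 20 µL; 0% = negative control wells and 100% = wells with untagged competitor protein; inactives centre near -12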
Sa growth 42C – S. aureus growth inhibition at 42 and 30 °C, primary screen, LtaS inhibitor project, RN4220, two temperatures | 170,000 tested, 0.53% active | relative growth, % (test concentration not listed) | OD600, 20 h, 42 °C; hits give low values;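 active = growth at 42 °C up to 50% and 20 or more points under that at 30 °C, or under 10% at both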;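 also: 300 nL library stock went into each well; scaled to the means of positive and negative controls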
Sa growth 42C second temp – further read-out of Sa growth 42C, marked with its call; relative growth, %; measured here: growth at 30 °C;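 optical density after 20 h as mean of two plates; 100% = untreated growth and lower means inhibition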
Numbers without * were called inactive; · = not tested or not shown; & = joins results of further samples.

No.	SMILES	GIV Gai3 FP	HCMV UL50-53 inh	Sa growth 42C	Sa growth 42C second temp
1	C/C(=N\N1CCN(C)CC1)C1=C(O)c2ccccc2C1=O	101	-63	100	111
2	O=S(=O)(c1ccc(NCCSCc2ccco2)nc1)N1CCCC1	·	-13	93	96
3	O=C(c1ccc2c(c1)N(Cc1cccc(Cl)c1)C(=O)c1ccccc1S2(=O)=O)N1CCCC1	102	·	95	83
4	Cc1cc(C)cc(OCc2nc3c4ccccc4ncn3n2)c1	99	-12	·	·
5	O=C(OCc1cc(=O)n2nc(C3CC3)sc2n1)c1ccc(NC(=O)c2ccccc2Cl)cc1	123	·	90	83
6	CC(C)(C)C(=O)Nc1nc2c(s1)CN(Cc1ccccc1)CC2	·	-14	74	81
7	CCC12C=CCN3CCC4(c5ccc(OC)cc5NC4C(O)(C(=O)OC)C1OC(C)=O)C32 (configuration not stated)	101	-40	111	76
8	Cn1cc(I)c(C(=O)O)n1	·	10	124	83
9	CCn1c2ccccc2c2cc(N3C(=O)C=CC3=O)ccc21	103	-7	3.8*	0.3*
10	CC1CCN(C(=O)CN2CC(C)Sc3ccccc32)CC1 (configuration not stated)	100&101	-19	97	92
11	COc1ccc(CN(Cc2ccco2)C(=O)COc2ccccc2)cc1	105	6	98	72
12	O=c1c2ccccc2nc(SCc2ccc(Cl)cc2)n1Cc1cccs1	98	·	91	82
13	CS(=O)(=O)N1CCc2cc(S(=O)(=O)NCc3ccccc3Cl)ccc21	101	·	97	83
14	COc1ccccc1CN1CCC(CNS(=O)(=O)c2cc(-c3onc(C)c3C)ccc2OC)CC1	104	·	94	81
15	CC(NC(=O)NC12CC3CC(CC(C3)C1)C2)C(=O)O (configuration not stated)	·	-3	93	94
16	CCC(Sc1nnc2c3ccccc3n(C)c2n1)C(=O)Nc1nnc(C(C)C)s1 (configuration not stated)	97	-33	80	85
17	CN(C)c1nc(C(F)(F)F)cs1	·	-26	97	92
18	CCC(c1nnc(SCC(=O)N(CC)c2ccccc2)o1)N(C)C (configuration not stated)	·	-14	79	91
19	CCCN(C(=O)Cc1c(C(=O)O)n(CC)c2ccccc12)c1cccc(Cl)c1	99	·	46	41
20	COc1cccc2cc(C(=O)Nc3ccc(N4CCNCC4)cc3)c(=O)oc12	103	-13	108	73
21	O=C(CSc1nc(-c2ccccc2)no1)N1CCN(c2ccccc2)CC1	108	·	88	89
22	COc1ccc(-c2cc(C(F)(F)F)n3nc(C(=O)NCc4ccco4)cc3n2)cc1OC	102	-18	·	·
23	COc1ccc2c(c1)CC(C(=O)Nc1cc(OC)c(OC)c(OC)c1)CO2 (configuration not stated)	98	·	98	84
24	COc1cccc(CNC(=O)CN2C(=O)N(c3c(C)cccc3C)S(=O)(=O)c3ccccc32)c1OC	106	·	114	99
25	O=C(c1ccccc1)c1c[nH]c2ccccc12	103	-16	92	83
26	CCCCNC(=O)c1ccc(CS(=O)c2ccccc2C)o1 (configuration not stated)	101	-10	104	92
27	CCN(C(=O)c1nn(-c2ccc(OC)c(Cl)c2)c(=O)c2c1c1ccccc1n2C)c1cccc(C(F)(F)F)c1	102	-27	93	93
28	COC(=O)c1sccc1NC(=O)CSCCc1ccncc1	107	-23	93	84
29	O=C(NC1CCN(C(=O)c2ccco2)CC1)C1CCC1	106	-10	72	88
30	CCOC(=O)C1=C(C)OC(N)=C(C(=O)OCC)C1c1ccncc1 (configuration not stated)	97	-17	99	74
31	O=C1CNC(=O)c2ccccc2N1	98	-21	100	85
32	CCOC(=O)N1CCN(C(=O)c2ccco2)CC1	·	-21	95	78
33	COc1ccccc1OC(C)C(=O)NCCc1csc(-c2ccccc2)n1 (configuration not stated)	100	-29	·	·
34	COc1ccccc1NC(=O)C1=C(C)Nc2nc(-c3ccco3)nn2C1c1ccccc1F (configuration not stated)	103	-22	105	85
35	Cc1ccc(NC(=O)CSCC(=O)N2CCN(c3ncccn3)CC2)c(C)c1	·	1	89	91
36	Cc1ccc(CNC(=O)c2c(-c3ccc(Br)cc3)noc2C)o1	104	·	69	83
37	Cc1noc2ncnc(NC(C)(C)CO)c12	98	-17	102	95
38	O=C(NCCc1ccccc1)C1c2ccccc2C(=O)N1C1CC1 (configuration not stated)	104	-2	81	79
39	O=C(O)c1ccc(N2N=C(/C=C/c3ccccc3)CC2c2ccccc2)cc1 (configuration not stated)	112	-29	·	·
40	CC(C)(C)C(=O)/C=c1\s/c(=C\c2ccco2)c(=O)n1CC(=O)Nc1ccc(S(=O)(=O)N2CCOCC2)cc1	·	-22	91	77
41	CC(=O)Nc1ccc2nc(NC(=O)c3cccc(F)c3)sc2c1	·	-15	123	85
42	Cc1cc(NC(=O)CSCC(=O)N=c2sc3ccccc3n2C)no1	101	-36	96	71
43	COC(=O)c1ccc2c(c1)NC(=O)c1ccccc1S2	102	·	116	87
44	CN1CCN(c2nc3c(S(=O)(=O)c4ccc(Cl)cc4)nnn3c3ccsc23)CC1	108	·	104	84
45	N#Cc1c(-n2ncnc2-c2ccc3c(c2)OCO3)sc2c1CCCCC2	101	-15	107	89
46	CC(C)Cn1c(=O)c2sccc2n2c(CCCC(=O)NCC(C)c3ccccc3)nnc12 (configuration not stated)	98	·	110	95
47	Cc1ccc(C2=C[N+](=O)C(C)(C)C(C)(C)N2[O-])cc1	110	0	105	110
48	Cc1ccc(C)n1-c1ccc(C2(O)CCSc3ccccc32)cc1 (configuration not stated)	111	-26	101	85
49	C=CCc1cccc2cc(C(=O)NCC3CCCO3)c(=O)oc12 (configuration not stated)	·	-35	107	86
50	O=C(c1ccccc1S(=O)(=O)NCC(O)COc1ccc(N2C(=O)C3CC=CCC3C2=O)cc1)N1CCOCC1 (configuration not stated)	101	-11	·	·

The list continues.
No.	SMILES	GIV Gai3 FP	HCMV UL50-53 inh	Sa growth 42C	Sa growth 42C second temp
51	COc1cccc(-c2nnc(SCC(=O)N3CCc4ccccc43)o2)c1	102	-2	106	81
52	CC(C)(C)C(=O)CSc1nc(SCC(=O)C(C)(C)C)c2ccccc2n1	103	-5	117	92
53	O=C1CSc2nnc(-c3ccccc3Br)n2N1	102	·	83	89
54	CC12CCC(C1)C(C)(C)/C2=N\O (configuration not stated)	106	-21	93	85
55	Cc1nc2cccnc2n1-c1cccc(C(=O)NCc2cccc(Cl)c2)c1	102	·	126	85
56	CCOc1ccccc1N(C)S(=O)(=O)c1cccc2cccnc12	107	·	107	92
57	O=C(CCCSc1nnc(-c2ccco2)n1-c1ccccc1)c1ccccc1	·	12	81	86
58	CC1(C)N=C(SCC(=O)Nc2ccccc2)C(c2ccccc2)=N1	116	·	80	79
59	COc1ccc(NC(=O)c2cc3c([nH]c2=O)CC(c2ccccc2)CC3=O)cc1 (configuration not stated)	102	·	94	91
60	CCC(c1nnnn1C(C)(C)CC)N1CCN(c2ccccc2)CC1 (configuration not stated)	97	13	96	110
61	Cc1ccc(C(=O)CSc2nnc(-c3snnc3C)n2C2CC2)cc1	99	-32	91	85
62	NC(=O)C1CCN(C(=O)c2ccc(Oc3ccccc3)cc2)CC1	·	-25	122	84
63	CCOC(=O)c1ccccc1NS(C)(=O)=O	98	·	98	75
64	O=C(Cc1ccccc1)N/N=C/c1ccc(O)cc1	106	-19	96	103
65	NS(=O)(=O)c1ccc(NC(=O)CSc2nc3sc4c(c3c(=O)[nH]2)CCC4)cc1	·	0	82	69
66	Cc1ccc(Cn2cc(C(=O)c3ccc(F)cc3)c(=O)c3cc4c(cc32)OCCO4)cc1	97	-28	103	88
67	CCSc1ccccc1C(=O)Nc1cccc(OC)c1	100	-3	101	101
68	COc1ccc2c3c(ccc2c1)-c1[nH]c2ccccc2c1CC3	·	-20	96	76
69	CCN(CC(=O)Nc1ccc(NC(C)=O)cc1)CC(=O)Nc1cc(C)on1	·	4	95	89
70	COc1cccc(C(=O)Nc2ccc(N3CCCS3(=O)=O)cc2)c1OC	100	9	·	·
71	Cc1nc2cc(C(=O)N3CCN(c4ccccn4)CC3)ccc2n(C)c1=O	124	-38	·	·
72	CCCSc1nc2sc3c(c2c(=O)n1-c1ccccc1)CCC(C)C3 (configuration not stated)	105	6	95	88
73	CCOC(=O)CSc1nnc2n1CCN2c1ccc(OC)cc1	99	-22	·	·
74	Cc1cc(S(=O)(=O)NC23CC4CC(CC(C4)C2)C3)ccc1-n1cnnn1	101	-3	110	101
75	CCOC(=O)c1csc(Nc2ccncc2)n1	109	5	107	104
76	COc1ccc(-n2nc(C(=O)NCC3CCCO3)c3c4ccccc4n(C)c3c2=O)cc1 (configuration not stated)	98	·	100	91
77	c1ccc(C(Cc2nc(-c3cccnc3)no2)c2ccccc2)cc1	103	-16	100	84
78	CCN1CCN(CCCNC(=O)C2c3cc(OC)c(OC)cc3C(=O)N(C)C2c2cccnc2)CC1 (configuration not stated)	101	1	110	103
79	COc1ccc(S(=O)(=O)NCc2ccc(C(=O)N3CCN(C)CC3)cc2)cc1	96	0	91	90
80	O=C(c1cc2cccnc2n(Cc2ccccc2)c1=O)N1CCCc2ccccc21	107	-7	·	·
81	CCOC(=O)CN1C(=O)N(c2ccc(C)c(C)c2)S(=O)(=O)c2ccccc21	104	·	92	101
82	CC(=O)N1CCc2c(sc(NC(=O)c3ccc(Br)s3)c2-c2nc3ccccc3s2)C1	108	-22	98	86
83	CC1Cc2ccccc2N1C(=O)COC(=O)c1ccccn1 (configuration not stated)	·	-11	99	99
84	Cc1ccc(-c2cn(-c3cccc(Cl)c3)c(S(=O)(=O)CC(=O)Nc3ccccc3F)n2)cc1	100	9	104	74
85	O=C1CCCc2cc(S(=O)(=O)N3CCCN(Cc4ccccc4Cl)C3)ccc2N1	102	-43	86	92
86	CC1CCN(C(=O)CCNS(=O)(=O)c2cccc3nsnc23)CC1	98	·	110	88

Nos. 67–83 from above:
No.	SMILES	GIV Gai3 FP	HCMV UL50-53 inh	Sa growth 42C	Sa growth 42C second temp
67	CCSc1ccccc1C(=O)Nc1cccc(OC)c1	100	-3	101	101
68	COc1ccc2c3c(ccc2c1)-c1[nH]c2ccccc2c1CC3	·	-20	96	76
69	CCN(CC(=O)Nc1ccc(NC(C)=O)cc1)CC(=O)Nc1cc(C)on1	·	4	95	89
70	COc1cccc(C(=O)Nc2ccc(N3CCCS3(=O)=O)cc2)c1OC	100	9	·	·
71	Cc1nc2cc(C(=O)N3CCN(c4ccccn4)CC3)ccc2n(C)c1=O	124	-38	·	·
72	CCCSc1nc2sc3c(c2c(=O)n1-c1ccccc1)CCC(C)C3 (configuration not stated)	105	6	95	88
73	CCOC(=O)CSc1nnc2n1CCN2c1ccc(OC)cc1	99	-22	·	·
74	Cc1cc(S(=O)(=O)NC23CC4CC(CC(C4)C2)C3)ccc1-n1cnnn1	101	-3	110	101
75	CCOC(=O)c1csc(Nc2ccncc2)n1	109	5	107	104
76	COc1ccc(-n2nc(C(=O)NCC3CCCO3)c3c4ccccc4n(C)c3c2=O)cc1 (configuration not stated)	98	·	100	91
77	c1ccc(C(Cc2nc(-c3cccnc3)no2)c2ccccc2)cc1	103	-16	100	84
78	CCN1CCN(CCCNC(=O)C2c3cc(OC)c(OC)cc3C(=O)N(C)C2c2cccnc2)CC1 (configuration not stated)	101	1	110	103
79	COc1ccc(S(=O)(=O)NCc2ccc(C(=O)N3CCN(C)CC3)cc2)cc1	96	0	91	90
80	O=C(c1cc2cccnc2n(Cc2ccccc2)c1=O)N1CCCc2ccccc21	107	-7	·	·
81	CCOC(=O)CN1C(=O)N(c2ccc(C)c(C)c2)S(=O)(=O)c2ccccc21	104	·	92	101
82	CC(=O)N1CCc2c(sc(NC(=O)c3ccc(Br)s3)c2-c2nc3ccccc3s2)C1	108	-22	98	86
83	CC1Cc2ccccc2N1C(=O)COC(=O)c1ccccn1 (configuration not stated)	·	-11	99	99

Assay outcomes deposited in PubChem by ICCB-Longwood Screening Facility, Harvard Medical School.
